TRPML1 inh – qHTS for Inhibitors of the Human Mucolipin Transient Receptor Potential 1 (TRPML1); Mucolipin-1 (Homo sapiens), Q9GZU1; TRPML1-inducible cells, Ca2+ dye fluorescence, FDSS; active compounds read low; inhibition of EC80 agonist-evoked calcium signal; activity change, negative = inhibition, % (concentration not given with the values); 0.02% of 390,000 active; in the data active means activity change below about -50%; inconclusive means about -30% to -50%; inactive means above about -30%;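 also: stimulus is agonist 54-4 at its EC80 concentration; % is scaled to controls: 0 for no effect and ±100 for the full control effect; the text of the record puts the active cut at -80%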
Target sequence (Q9GZU1 whole entry, looked up): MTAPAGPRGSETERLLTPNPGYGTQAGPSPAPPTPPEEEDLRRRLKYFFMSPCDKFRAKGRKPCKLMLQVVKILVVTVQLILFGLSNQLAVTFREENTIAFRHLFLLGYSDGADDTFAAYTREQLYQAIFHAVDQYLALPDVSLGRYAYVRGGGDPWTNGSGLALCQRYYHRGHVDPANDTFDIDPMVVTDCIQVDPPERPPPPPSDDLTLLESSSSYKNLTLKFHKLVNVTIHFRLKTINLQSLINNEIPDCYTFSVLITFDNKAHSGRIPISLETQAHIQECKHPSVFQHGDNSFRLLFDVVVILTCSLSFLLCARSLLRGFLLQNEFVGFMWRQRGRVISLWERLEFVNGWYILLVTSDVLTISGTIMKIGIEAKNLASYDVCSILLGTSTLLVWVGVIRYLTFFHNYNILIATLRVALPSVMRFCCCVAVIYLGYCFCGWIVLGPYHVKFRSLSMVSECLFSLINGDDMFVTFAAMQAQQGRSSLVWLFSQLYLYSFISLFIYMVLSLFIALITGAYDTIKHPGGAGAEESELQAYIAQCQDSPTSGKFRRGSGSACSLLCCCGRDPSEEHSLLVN
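Tet-induced TRPML1-DL cells loaded with Ca8 no-wash calcium dye were read kinetically on FDSS. Compound addition was followed by EC80 agonist 54-4 (4 uM final); inhibition was read over 110 s.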
CtBP-E1A blk – qHTS Assay for Inhibitors of the CtBP/E1A Interaction; CtBP / adenovirus E1A interaction (AlphaScreen); AlphaScreen GST-E1A/His-CtBP binding, 1536-well; active compounds read low; control for the full effect not named in the record; activity change, % (test concentration not listed); 0.49% of 340,000 active; AID 651724, 2012; in the data active means activity change below about -65%; inconclusive means about -30% to -65%; inactive means above about -30%; also: % is scaled to controls: 0 for no effect and ±100 for the full control effect
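In 5 uL wells, 23 nL compound meets equimolar GST-E1A and His-CtBP (5X stock 125 nM each) for 2 h, 37 °C. Beads (5X, 50 ug/mL) then 1 h, 37 °C, dark.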
TRPML1 agonist – qHTS for Agonists of the Human Mucolipin Transient Receptor Potential 1 (TRPML1); AID 624414, 2012; activation, % (test concentration not listed); TRPML1-expressing cells, Ca2+ dye fluorescence, FDSS; host cell line not named in the record; reference of the full effect not given here; 0.12% of 410,000 active; Mucolipin-1 (Homo sapiens), Q9GZU1; in the data active = activation above about 50%; inconclusive = about 30% to 50%; inactive = below about 30%; also: 0% is about no effect; the text of the record puts the active cut at 80%
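Agonist activity was taken from a 110 s kinetic Ca2+ dye read on the FDSS after pinning compounds onto TRPML1-DL cells. The cells were seeded at 1,500/well with Tet inducer, incubated about 16 h, then dye-loaded at room temperature.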
D2 potentiator – Beta-Arrestin HTS for Positive Allosteric Modulators of the Human D2 Dopamine Receptor: Potentiators; AID 624464, 2012; 0.23% of 360,000 active; DiscoveRx D2 beta-arrestin cells, luminescence, 90 min; 100% = 57 uM dopamine signal; potentiation, % (concentration not given with the values); active = potentiation of 50% or more; inconclusive = 30% to 50%; inactive = 30% or less;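 also: compound concentration not given in the record; tested on top of an EC20 dose of dopamine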
Target sequence (P14416 whole entry, looked up): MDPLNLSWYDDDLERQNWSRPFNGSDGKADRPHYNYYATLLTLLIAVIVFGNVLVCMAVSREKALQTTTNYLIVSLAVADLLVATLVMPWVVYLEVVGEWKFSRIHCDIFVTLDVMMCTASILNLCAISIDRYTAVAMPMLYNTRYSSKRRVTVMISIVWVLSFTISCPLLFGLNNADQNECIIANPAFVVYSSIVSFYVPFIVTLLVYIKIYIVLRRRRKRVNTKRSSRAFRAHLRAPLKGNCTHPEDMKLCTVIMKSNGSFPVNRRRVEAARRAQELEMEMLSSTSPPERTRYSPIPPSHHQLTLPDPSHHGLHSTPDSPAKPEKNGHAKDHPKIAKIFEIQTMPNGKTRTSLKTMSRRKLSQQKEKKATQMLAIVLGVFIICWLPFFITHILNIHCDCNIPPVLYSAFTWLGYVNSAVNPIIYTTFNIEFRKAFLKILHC
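PathHunter beta-arrestin assay in DiscoveRx D2 cells. Compounds were added with an EC20 of dopamine (50 nM final) for 90 min at 37 deg C. Luminescence was read 1 h after detection reagent, with 57 uM dopamine as the EC100 control.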
Six1-Eya2 blk – qHTS Assay for Inhibitors of the Six1/Eya2 Interaction; Homeobox protein SIX1 (Homo sapiens) + Protein phosphatase EYA2 (Homo sapiens), …; AlphaScreen GST-Six1/His-Eya2 binding, biochemical; active compounds read low; control for the full effect not named in the record; activity change, % (concentration not given with the values); 0.56% of 360,000 active; AID 651725, 2012; in the data active = activity change below about -65%; inconclusive = about -30% to -65%; inactive = above about -30%; also: % is scaled to controls: 0 for no effect and ±100 for the full control effect
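Homogeneous AlphaScreen proximity assay pairing GST-Six1 with His-tagged Eya2 (added as 5X mix: 250 nM and 500 nM) in 50 mM Tris pH 8.0, 300 mM NaCl, 1 mM TCEP. Glutathione donor and nickel acceptor beads; 1 h, 37 °C, dark.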
TRPV1 potentiator – HTS Assay for Compounds that Act as Potentiators of the Vanilloid Receptor 1 | Transient receptor potential cation channel subfamily V member 1 (Homo sapiens), Q8NER1 | TRPV1-expressing cells, Fluo-8 calcium influx, capsaicin EC20 potentiation; host cell line not named in the record; control for the full effect not named in the record | potentiation, % at 8.33 µM | 0.02% of 320,000 active | AID 540277, 2011; active means potentiation above 80%; inconclusive means 30% to 80%; inactive means below 30%; also: 0% is about no effect
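TRPV1-expressing cells were cultured overnight at 35.5C and loaded with Fluo-8 calcium dye for 40 to 90 min at room temperature. After a 10 s baseline, compound was added and calcium influx was read kinetically for 3 min (ex 480/em 520 nm).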
An asterisk follows results filed as active; ? = inconclusive; / = no result given; & = joins results of further samples.

SMILES	TRPML1 inh	CtBP-E1A blk	TRPML1 agonist	D2 potentiator	Six1-Eya2 blk	TRPV1 potentiator
NC(=O)NC1NC(=O)NC1=O (configuration not stated)	6	3	0.7	-27	3	9&-9
CCOC(=O)[C@@H]1[C@H]2COc3ccc(Br)cc3[C@@H]2N2C(=O)N(c3ccc(Cl)cc3)C(=O)[C@]12C	9	0	1.2	-2	1	/
O=[N+]([O-])c1cc2c(cc1CN1CCN(c3ccccc3)CC1)OCO2	/	/	/	-48	0	?
Cc1ccc(OCC(=O)Nc2cccc(S(=O)(=O)N3CCCCCC3)c2)c([N+](=O)[O-])n1	63	/	2.5	-11	-8	5
COc1ccc(CN(C)C(=O)c2oc3ccccc3c2CSC)cc1F	-2	0	4.3	-2	-21	5
CCOc1ccc2c(c1)C(C)=CC(C)(C)N2S(=O)(=O)c1ccc(F)cc1	-8	13	0.2	-3	-1	1
O=C(O)Cn1nc2c3c(cccc3c1=O)-c1ccccc1-2	/	-7	/	-10	-14	16
CCn1c(SCC(=O)N/N=C/C=C\c2ccccc2[N+](=O)[O-])nc2ccccc21	0	-21	0.5	-12	-20	?
O=c1c(OC2OC(CO)C(O)C(O)C2OC2OC(CO)C(O)C(O)C2OC2OC(CO)C(O)C(O)C2O)c(-c2ccc(O)c(O)c2)oc2cc(O)cc(O)c12 (configuration not stated)	/	-1	/	-22	-5	5
COc1ccc(NS(=O)(=O)N2CCOCC2)cc1	0	3	3.8	-8	3	2
CCc1oc(C(=O)OC)cc1CSC(=N)N	-4	2	0.6	-5	-2	-6
Cc1ccccc1-c1nn[nH]n1	-3	9	-0.3	-5	4	7
C/C(=N\NC(=O)c1cccc(Cl)c1)C1C(=O)c2ccccc2C1=O	20	?	3.9	-20	-26	1
CCC(C)NC(=O)c1cn(CC)c2ccc(S(=O)(=O)N(C)C)cc2c1=O (configuration not stated)	-11	-1	0.2	-2	-2	-18
Cc1ccc(CNC(=O)CNS(=O)(=O)c2cccc3nsnc23)cc1	14	0	0.8	3	-1	7
CCn1c(N2CCN(C(=O)C34CC5CC(CC(C5)C3)C4)CC2)nc2ccccc21	3	-6	-0.2	-19	-6	-9
O=C(COc1cc2oc(=O)cc(-c3ccccc3)c2cc1Cl)NCc1ccccn1	-1	2	2.7	-16	0	-10
Nc1c(C(=O)CSc2ccccn2)c(=O)[nH]c(=O)n1C1CC1	-5	2	-0.4	-3	-1	-1
COc1cccc(Nc2c([N+](=O)[O-])cncc2[N+](=O)[O-])c1	-16	-26	2.4	3	-20	-11
CC1CCN(S(=O)(=O)c2ccc3c(c2)n(C)c(=O)n3C)CC1	-4	-2	-0.6	1	1	17
COc1ccc(S(=O)(=O)N2CCCC2)cc1C(C)C	19	5	1.3	2	11	5
O=C(c1cccnc1)c1ncc(C(F)(F)F)cc1Cl	-7	/	-0.7	-2	-1	-4
O=C(OCCc1cc2ccccc2c(=O)o1)c1cccc(Br)c1	46	34	4.8	-12	43	18
Cc1ccc(C(=O)Nc2c[nH]c(=O)[nH]c2=O)cc1	-4	9	0.2	-3	4	2
S=C1NCCOCCOCCOCCOCCN1	3	4	-0.3	1	2	2

Random excerpt: 7 records from the list
SMILES	TRPML1 inh	CtBP-E1A blk	TRPML1 agonist	D2 potentiator	Six1-Eya2 blk	TRPV1 potentiator
Cc1ccc(CNC(=O)CNS(=O)(=O)c2cccc3nsnc23)cc1	14	0	0.8	3	-1	7
C/C(=N\NC(=O)c1cccc(Cl)c1)C1C(=O)c2ccccc2C1=O	20	?	3.9	-20	-26	1
O=C(O)Cn1nc2c3c(cccc3c1=O)-c1ccccc1-2	/	-7	/	-10	-14	16
CCOc1ccc2c(c1)C(C)=CC(C)(C)N2S(=O)(=O)c1ccc(F)cc1	-8	13	0.2	-3	-1	1
Cc1ccccc1-c1nn[nH]n1	-3	9	-0.3	-5	4	7
Nc1c(C(=O)CSc2ccccn2)c(=O)[nH]c(=O)n1C1CC1	-5	2	-0.4	-3	-1	-1
O=C(OCCc1cc2ccccc2c(=O)o1)c1cccc(Br)c1	46	34	4.8	-12	43	18

The results go on:
SMILES	TRPML1 inh	CtBP-E1A blk	TRPML1 agonist	D2 potentiator	Six1-Eya2 blk	TRPV1 potentiator
Nc1ccc(Br)cc1C(=O)O	-3	-5	-0.8	14	7	4
CCn1c(SCC(=O)Nc2ccc3c(c2)OCCO3)nnc1C(C)C	-5	14	-1.9	2	-1	7
NC(=O)C1CC(=O)N(c2ccc(OCC(=O)N3CCCC3)cc2)C1 (configuration not stated)	9	4	0.9	-5	7	/
CCOC(=O)c1cnc(SCC(=O)Nc2ccc3c(c2)OCCO3)nc1N	6	-1	1.5	-9	-1	-14
COC(=O)c1cc(NC(=O)CSc2nnc(N)s2)ccc1Cl	-5	9	-0.5	-5	3	9
O=Nc1[nH]c(=O)c(/C=C(\O)c2ccccc2)nc1NO	3	0	-1.2	-1	-8	-7
O=C(NCc1ccccc1)c1cc(C2CCCN(S(=O)(=O)c3cccs3)C2)on1 (configuration not stated)	/	2	-0.5	-20	-3	/
COc1ccc(NC(=O)c2cc(Br)c(Br)s2)cn1	3	-2	-0.7	-19	1	-11
COc1ccc(CN2CCN(Cc3ccc(C(F)(F)F)cc3)CC2)c(OC)c1	-15	/	1.9	-18	-23	5
CCOc1ccc(C(=O)NCC(=O)NCCSc2ccc(Br)cc2)cc1OCC	24	15	2.1	-33	-26	/
O=C(COc1ccc2c3c(c(=O)oc2c1)CCC3)N[C@@H](CSCc1ccccc1)C(=O)O	/	-13	/	-16	-13	4
CCOc1ccc(NC(=O)CCNS(=O)(=O)c2ccc3c(c2)CCC(=O)N3)cc1	-9	-6	-0.4	-7	4	-3
CC(C)[C@H](NC(=O)c1ccccc1Cl)C(=O)NC1CCCCCC1	-4	3	-0.9	17	0	9
CC(C)n1c(SCC(=O)N2CCN(C)CC2)nc2c1c(=O)n(C)c(=O)n2C	-8	2	-0.6	1	3	3
Cc1nn2cc(-c3ccc(Cl)cc3)cnc2c1Cl	8	-14	-0.9	-1	23	30
COc1ccccc1/C=C/C(=O)Nc1cccc(S(=O)(=O)NC2=NCCCCC2)c1	-3	-27	2.5	-5	-25	6
Cc1cc(C(=O)CSCCCn2c(=O)[nH]c3ccccc32)c(C)n1C	30	-11	-0.8	-14	-2	17
Cc1nnc(SCC(=O)N/N=C/c2cn(-c3ccccc3)nc2-c2ccccc2)n1-c1ccccc1	16	-4	2.8	?	-8	3
O=C(CN1CCN(Cc2ccccc2Cl)C1=O)NCc1ccco1	-4	-1	-0.6	3	0	18
O=C(Nc1ccccc1)[C@@H]1CC=C[C@@H]2CCN(Cc3ccccc3)C(=O)[C@@H]21	-7	5	-0.3&-1.1	-12	1	/
COC(=O)c1ccc(-c2c(-c3ccccc3)ncc3cc(OC)c(OC)cc23)cc1	-8	-25	1.7	1	7	0
O=C(c1cc(N2CCOCC2)c(F)cc1[N+](=O)[O-])N1CCOCC1	34	-5	0.4	3	27	-10
CCCC(=O)NCCc1nc2ccccc2n1C	6	3	-0.9	1	-2	10
NC(=O)c1ccc(N=Cc2ccc([N+](=O)[O-])s2)cc1	-14	?	-0.5	12	?	8
CCOC(=O)C1(C(=O)OCC)NC(=O)CC1CC(C)C (configuration not stated)	15	-1	0.4	-9	3	/
The list continues:
SMILES	TRPML1 inh	CtBP-E1A blk	TRPML1 agonist	D2 potentiator	Six1-Eya2 blk	TRPV1 potentiator
CN(CC(=O)Nc1ccc(Cl)cc1)C(=O)CNC(=O)Cc1cccc2ccccc12	7	-6	-0.2	-3	0	6
N/C(=N\OC(=O)c1ccco1)c1cccc(Br)c1	-24	20	0.8	23	7	3
Cc1ccc2nc(SCC(=O)Nc3ccc(F)cc3F)[nH]c2c1	-16	-7	2.0	-7	0	-7
C/C=C(\C)CN1CCCC(CO)(Cc2ccccc2)C1 (configuration not stated)	-6	0	0.7	-11	5	-16
COCCNC(=O)CN(C(=O)CCC(=O)Nc1ccccn1)c1ccc(OC)cc1	-5	2	-0.4	-10	-6	-1
OCC1(Cc2ccccc2)CCN(Cc2cnc(-c3ccc(Cl)cc3)nc2)CC1	5	-4	-0.6	-14	-9	-15
O=C(CCc1nc2ccccc2c(=O)[nH]1)OCc1ccc(-c2ccccc2)cc1	49	24	2.2	-25	-4	5
CS(=O)(=O)NCCSCc1c(Cl)cccc1Cl	15	5	-0.5	-8	3	1
CCCCCCc1nc2c(=O)[nH]c3ccccc3c2o1	3	14	-0.4	-1	1	-6
O=[N+]([O-])c1ncn(Cc2c(Cl)cccc2Cl)n1	4	12	4.6	0	3	-6
Cc1nn(-c2ccccc2)c(C)c1CN(C)C(=O)c1ccc(S(=O)(=O)NCc2ccco2)cc1	25	/	-0.4	0	0	-1
CCN1CCN(C(=O)c2ccccc2NC(=O)c2ccc(Cl)cc2)CC1	0	-1	1.2	-16	3	30
Cc1cc(OCc2nn[nH]n2)c2c(C)c(CC(=O)O)c(=O)oc2c1	-23	-9	4.0	-12	4	/
CCC(=O)N1CCC1(C)C(=O)Nc1ccc(OC(F)F)cc1 (configuration not stated)	/	5	-0.8	-6	-1	/
CC(=O)Nc1ccc(Br)c2ccccc12	-2	-7	0.1	-10	8	?
NC(=O)CC[C@H](NC(=O)[C@H](Cc1ccccc1)n1c(=O)[nH]c2ccccc2c1=O)C(=O)N1CCC[C@H]1C(=O)O	/	4	/	-3	0	7
CC(C)NC(=O)Cn1cc(S(=O)(=O)N2CCCC2)c(S(=O)(=O)N2CCCC2)c1	-8	-10	0.4	8	7	6
CCC1=Nc2cc(C(=O)NCc3ccco3)ccc2Sc2ccc(Cl)cc21	-15	2	1.0	-17	-13	9
CC(C)(C)c1ccc(S(=O)(=O)NCC(=O)N2CCN(Cc3ccccc3)CC2)cc1	11	-3	1.7	-16	0	-3
CCC(=O)NC(=S)NNC(=O)c1ccc(NC(=O)c2ccccc2)cc1	-2	/	3.8	6	-9	0
CCOC(=O)C1=C(C)N=c2s/c(=C/c3cccc([N+](=O)[O-])c3O)c(=O)n2C1c1cc(OC)c(OC)c(OC)c1 (configuration not stated)	2	-80*	8.6	-5	-70*	-1
O=[N+]([O-])c1ccc(N2CCN(CCOCCO)CC2)c([N+](=O)[O-])c1	15	/	2.6	-47	6	-3
CC1=NN2C(=N)/C(=C\c3ccc(SCc4ccccc4)o3)C(=O)N=C2S1	2	3	0.4	-6	-1	14
Cc1c(C(=O)Nc2ccc3c(c2)OCCO3)oc2ccc(Br)cc12	-11	-15	3.8	-24	2	-34
COc1cccc(NC(=S)NCc2ccco2)c1	18	-6	0.5	9	-3	-3
Cc1ccc(NC2CCCN(C(=O)CCN3CCOCC3)C2)cc1C (configuration not stated)	-13	1	-0.2	10	-2	-8

An unsorted share of the library, and some 0.95% of all compounds hit somewhere here.
